MgrA DNA FP: alters Staphylococcus aureus MgrA binding to DNA. inhibition, %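 (about 10 µg/mL by stock and volumes)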. fluorescence polarization. 84,000 compounds, 0.13% hits. AID 602314;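 active = above 50% in either of two replicates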;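 note: 0% = protein plus DNA without compound and 100% = DNA alone without protein; higher means less MgrA bound to DNA so lower polarization; one replicate is shown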
S aureus helic: S. aureus DNA helicase inhibition. purified S. aureus helicase, fluorescence unwinding assay; about half of the hits fall short of the stated cut. inhibition, %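 (tested at about 80 µM)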. 120,000 compounds, 0.05% hits;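 active = both duplicates at 50% or more, or one of them with a favoured structure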;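 note: 0% = mean of negative control wells and 100% = mean of positive control wells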
Starred values were filed as active, the others as inactive; / = no result given. These rows are one share of the data. The share of hits here may be higher or lower than overall.

nr	molecule	MgrA DNA FP	S aureus helic
1	Cc1nn(C)c(C)c1NC(=O)c1ccccc1NC(=O)c1cccs1	-3.5	/
2	CCOC(=O)/C(C#N)=c1\s/c(=C\c2ccc(OC)cc2)c(=O)n1CC	/	-82
3	COC(=O)c1ccc(NC(=O)COC(=O)CSc2nc(C)cc(C)n2)cc1	0.4	14
4	CC(C)(C)c1cc2nc(C(F)(F)F)cc(N3CCN(c4ncc(C(F)(F)F)cc4Cl)CC3)n2n1	/	-26
5	N#Cc1c(-c2ccccc2)nc(SCc2ccccc2)[nH]c1=O	-0.2	/
6	COc1ccc(NC(=O)c2oc3ccccc3c2NC(=O)C2CCCCC2)cc1OC	/	13
7	CCOc1ccccc1/C=C(\C#N)c1cccc(Cl)c1	1.1	/
8	O=C(CSc1nnc(-c2ccc(C(F)(F)F)cn2)o1)c1ccccc1	-1.0	/
9	Cc1cc(OCn2ccc(C(=O)O)n2)ccc1Cl	-1.8	6
10	Cc1ncc([N+](=O)[O-])n1CC(O)CCl (stereo not drawn)	13	/
11	Cc1nc2sc(C(=O)OCC(=O)c3cc(C)n(C)c3C)c(C)c2c(=O)[nH]1	/	-6
12	CCC(C(=O)NCc1ccc2c(c1)cc(C)n2C)c1ccccc1 (stereo not drawn)	/	11
13	CC(C)(C)c1cc(-c2nccs2)ccc1/C=N/O	-1.1	/
14	Cc1ccc2c(c1)c(C)c(C)n2CC(O)CN1CCCCC1 (stereo not drawn)	/	20
15	CCCCNS(=O)(=O)c1ccc2c(c1)nc(SCC(=O)N1CCCC1)n2CCCC	/	-4
16	CCS(=O)(=O)N1CC=C(c2c(C)n(CC(=O)N3CCCC3)c3ccccc23)CC1	9.8	-3
17	O=c1cc(-c2ccccc2)nc2nc(C(F)(F)F)[nH]n12	-0.2	4
18	Cc1ccc(C23CC4CC(CC(C(=O)NC5=NCCS5)(C4)C2)C3)cc1	2.8	5
19	O=C(Nc1nnc(SCC(=O)N2CCc3ccccc32)s1)C1CCCCC1	/	-8
20	Cn1cc(Cl)c(/C=N/O)n1	-0.6	/
21	CCN(CC)S(=O)(=O)c1ccc(C(=O)NCCc2c[nH]c3ccccc23)cc1	1.2	-9
22	COc1ccc(OCCCC(=O)O)cc1	-1.6	-29
23	CCc1ccc(NS(=O)(=O)c2ccc3c(c2)OCCN3C)cc1	1.8	-8
24	Cn1c2ccccc2c2nnc(SCCC(=O)O)nc21	-1.1	24
25	Cc1nn(C)c(C)c1CNC(=O)NC1CCCC1	/	0
26	Cc1nn(-c2ccc(Cl)cc2)c2sc(C(=O)NC3CCC(O)CC3)cc12 (stereo not drawn)	2.2	14
27	O=C(COc1ccc2c(c1)OCO2)c1ccc(F)cc1	/	-10
28	O=C(Cc1coc2cc3c(cc12)CCC3)N1CCc2ccccc21	/	-4
29	CC1(c2ccc(OC(F)F)cc2)NC(=O)N(/N=C/c2ccncc2)C1=O (stereo not drawn)	/	-4
30	CCOC(=O)c1cn(CC)c2cc(N3CCCC3)c(F)cc2c1=O	/	13
31	Cc1ccc(OC(=O)c2cccs2)c(Br)c1	-1.6	/
32	Cc1cc(=O)oc2c(CN3CCCCC3)c(O)ccc12	2.1	6
33	COc1ccc(-c2cc(C(F)(F)F)n3nc(C(=O)NCC4CCCO4)c(Cl)c3n2)cc1OC (stereo not drawn)	0.9	/
34	C=CCNC(=O)N1CC(Oc2ccc(Cl)cc2)C1	0.3	/
35	COc1ccc(/C=C2\N=C(c3cc([N+](=O)[O-])ccc3Cl)OC2=O)cc1OC(C)=O	1.8	/
36	CC(NS(C)(=O)=O)C(c1cccs1)N1CCN(Cc2ccccc2)CC1 (stereo not drawn)	/	16
37	Cc1ccc2[nH]c(=O)c(CN(C(=O)c3cccs3)C3CCCCC3)cc2c1	-3.9	1
38	Clc1ccc(C2CC(C3CC3)=NN2c2ccccc2)cc1 (stereo not drawn)	-0.5	-3
39	O=c1c(Br)c(N2CCc3ccccc3C2)cnn1-c1ccccc1	/	4
40	Cc1nn(-c2ccccc2)c(N)c1N=Nc1ccc(S(=O)(=O)N2CCOCC2)cc1	/	12
41	NCC(c1ccccc1)N1CCCC1 (stereo not drawn)	/	-1
42	Cc1nc2cc(NS(=O)(=O)c3ccccc3)ccc2n1-c1ccccc1	/	-8
43	C/C(=C\C(=O)Nc1ccc(Cl)cc1)N1CCN(Cc2ccccc2)CC1	/	-11
44	O=c1c2c(-c3ccccc3)csc2nc2n1CCCCC2	/	-9
45	O=c1oc(-c2ccccc2F)nc2sc3c(c12)CCCC3	0.1	/
46	O=C(NC1CCCCC1)c1ccccc1NS(=O)(=O)c1ccc(F)c(F)c1	-0.2	16
47	CCc1cc2c(cc(C(=O)OC)n2Cc2ccc(Br)cc2F)s1	-0.3	8
48	CCN(CC)/C(N)=N/c1nc(C)cc(C)n1	-2.1	9
49	Cc1ccc(S(=O)(=O)N(CCc2ccccc2)CC(=O)Nc2ccc(C(C)C)cc2)cc1	7.8	3
50	Cc1ccc(C)c(N2CCN(CCCNC(=O)Nc3cn(CC(C)C)c(=O)c4ccccc34)CC2)c1	/	20

Additional structures:
nr	molecule	MgrA DNA FP	S aureus helic
51	O=C(O)CSc1nccn1-c1ccc(Br)cc1	/	-4
52	O=C(CSc1nnc(-c2c[nH]c3ccccc23)o1)NC(=O)Nc1ccccc1F	/	4
53	CCn1c(SCCC#N)nc2cc(S(=O)(=O)N3CCCCC3)ccc21	/	14
54	O=C(Nc1nc2ccc(Cl)cc2s1)c1ccco1	/	6
55	CCN1CCN(CCCNC(=O)c2cc3cc4ccc(Cl)cc4nc3o2)CC1	1.0	21
56	Cc1noc2ncnc(N3CCC(C(N)=O)CC3)c12	/	-11
57	CC/C(C)=N/Nc1ccc(S(=O)(=O)N(CC)CC)cn1	/	-2
58	O=C(/C=C/c1ccco1)Nc1ccc(Oc2ccccc2)cc1	/	14
59	CC(=O)Nc1ccc2c(CSc3nnc(-c4ccco4)n3C)cc(=O)oc2c1	/	-3
60	CCc1noc2c1/C(=N\O)CC(c1ccccc1)C2 (stereo not drawn)	-0.8	3
61	O=C(NC(Sc1ncccn1)C(=O)c1ccccc1)c1ccccc1 (stereo not drawn)	-0.2	1
62	CC(C)(C)NC(=O)c1ccccc1NC(=O)Nc1ccccc1	1.1	-10
63	c1ccc(CSCc2nc3ccccc3[nH]2)cc1	-1.7	13
64	O=C(/C=C/c1ccc(Br)o1)OCC(=O)N1CCc2ccccc21	0.3	-18
65	CCc1ccccc1NC(=O)CSc1nnc(C)n1CC	0.3	19
66	COc1ccc(NC(=O)Oc2ccccc2)cc1	-0.8	/
67	Cc1[nH]c2ccccc2c1C(=O)Cn1ccsc1=N	/	-6
68	Cc1onc(-c2ccccc2)c1CN1C(=O)c2ccccc2S1(=O)=O	1.2	/
69	COc1ccc(C2CC(c3ccccc3)=NN2C(=O)c2ccc(F)cc2)cc1 (stereo not drawn)	1.1	/
70	NC1CCC2CCCCC2C1 (stereo not drawn)	/	-12
71	CCC1Oc2ccccc2C(=O)NC1=O (stereo not drawn)	-1.7	/
72	NC(=O)c1oc2ccccc2c1NC(=O)C12CC3CC(CC(C3)C1)C2	/	4
73	CC(C)(C)NC(=O)CCC1COc2ccccc2O1 (stereo not drawn)	0.0	12
74	CCN(CC)C(=S)Oc1ccc(I)cc1	-1.1	/
75	CCOC(=O)Nc1ccc2c(c1)N(C(=O)CNC)c1ccccc1CC2	/	8
76	CC(Nc1ccc(C(F)(F)F)cc1[N+](=O)[O-])c1ccccc1 (stereo not drawn)	3.4	/
77	Fc1ccc(N=Cc2ccncc2)cc1F	6.6	-19
78	N/C(CS(=O)(=O)c1cccs1)=N\O	3.0	/
79	CC(C)(O)C(=O)N=Nc1c(O)[nH]c2ccccc12	3.5	-10
80	Nc1ccccc1SCc1ncc(C(F)(F)F)cc1Cl	-2.5	/

Molecules shown so far that have a COOH group (four):
nr	molecule	MgrA DNA FP	S aureus helic
9	Cc1cc(OCn2ccc(C(=O)O)n2)ccc1Cl	-1.8	6
22	COc1ccc(OCCCC(=O)O)cc1	-1.6	-29
24	Cn1c2ccccc2c2nnc(SCCC(=O)O)nc21	-1.1	24
51	O=C(O)CSc1nccn1-c1ccc(Br)cc1	/	-4

(cont.)
nr	molecule	MgrA DNA FP	S aureus helic
81	CC(C)C(=O)Nc1ccccc1C(=O)OCC(=O)c1ccc2c(c1)OCCO2	/	-5
82	COc1cccc(/C=N\NC(=O)c2n[nH]c3c2CCC3)c1	/	6
83	COc1ccc(-c2c(N)nc(-c3ccc(Cl)cc3)nc2SC)cc1	-0.4	/
84	O=C(NCC(=O)N1CCc2ccccc2C1)c1cccs1	/	-5
85	CS(=O)(=O)NCc1ccccc1Cl	0.2	22
86	Cc1ccc(-c2nc3scc(CCNS(=O)(=O)N(C)C)n3n2)cc1	/	0
87	Brc1cccc2c3c4n(c12)CC1COC4(CCC3)O1 (stereo not drawn)	/	18
88	COc1cc(/C=C2/SC(=S)N(C)C2=O)ccc1Oc1nc(N2CCOCC2)nc(N2CCOCC2)n1	0.0	/
89	c1ccc(OCCSc2nnc3sc4ccccc4n23)cc1	0.3	11
90	CCOC(=O)[C@H](CCc1ccccc1)N[C@H](C)C(=O)N1C2CCCCC2C[C@H]1C(=O)O (stereo partly drawn)	3.5	/
91	CCc1oc2ccccc2c1/C=N/O	/	4
92	COC(Cn1c(SCC(=O)c2ccccc2)nnc1-c1ccccc1)OC	/	-1
93	Nc1c(Cl)cc(Cl)c2nsnc12	/	-12
94	CNc1ccc2c(cc1=O)[C@@H](NC(C)=O)CCc1cc(OC)c(OC)c(OC)c1-2	/	7
95	CN(C)C(=S)Nc1ccc(Cl)cc1	-1.4	/
96	COc1ccccc1-n1c(Cc2ccc(Cl)cc2)n[nH]c1=S	1.6	14
97	Nc1ccccc1/C=C1\C(=O)Nc2ccccc21	0.0	/
98	CC1(C)CC(=O)C(C=Nc2ccc(F)cc2F)=C(O)C1	2.0	/
99	NNC(=O)CSCc1ccc(Cl)cc1	-1.9	1
100	CCOC(=O)Cn1c(=O)n(CCc2ccccc2)c(=O)c2ccccc21	/	3
101	c1ccc(-c2csc(NCc3ccco3)n2)cc1	/	7
102	CCN(CC)C(=S)Oc1c(C)c(C)nc(=S)n1CCCOC	/	-27
103	CC(C)CN1C(=O)c2cccnc2C1=O	-1.8	10
104	COc1ccccc1NC(=O)c1oc2ccc3c(c2c1C)C(=O)CC(C)(C)O3	/	-36
105	Cc1cc(=O)[nH]c(-n2cc(C(=O)c3cc(F)ccc3O)cn2)n1	/	-6
106	Cc1nc(C)c(-c2nnco2)cc1C(=O)NN	/	28
107	CSC(=Nc1ccccc1)Nc1ccccc1	1.5	/
108	O=C(NCc1ccc2c(c1)OCO2)C1CCN(S(=O)(=O)c2ccc(Br)s2)CC1	-0.5	4
109	O=C(O)CSCC(=O)N1CCN(Cc2c(F)cccc2Cl)CC1	-1.6	/
110	Oc1ccc2cc(Br)ccc2c1/C=N/n1cnnc1	-0.6	2
111	COc1ccc(N2CSCc3nc4ccccc4n3C2)cc1	4.3	/
112	O=C(O)CCc1cccs1	-4.3	/
113	O=C(/C=C/c1ccco1)Nc1cc(C(=O)O)cc(C(=O)O)c1	31	14
114	CCn1cnc2scc(-c3ccccc3)c2c1=O	2.6	17
115	O=C1CC2(CCCc3ccccc32)C(=O)N1CN1CCOCC1 (stereo not drawn)	0.2	/
116	CCN(Cc1cc(OC)c(OC)c(OC)c1)S(=O)(=O)c1cc(Cl)c(Cl)cc1Cl	-2.2	/
117	Cc1ccc(NC(=O)CC2SC(=Nc3ccccc3)N(c3ccccc3)C2=O)cc1 (stereo not drawn)	1.3	/
118	CC(=O)c1ccc(-c2cc(C(F)(F)F)ccc2Cl)o1	-0.7	/
119	COC(=O)c1c(-c2ccc(C)c(C)c2)csc1NC(=O)C1CCCCC1C(=O)O (stereo not drawn)	-0.3	18
120	C=CCSC1=C(C#N)C2(CCCC2)C(C#N)C(=O)N1 (stereo not drawn)	-0.4	9
121	CCOC(=O)C1=NNC2C(=O)N(c3cccc(Cl)c3C)C(=O)C12 (stereo not drawn)	1.8	9
122	Cc1nc2ccc(NC(=O)COCC(=O)O)cc2nc1C	/	-25
123	CCn1c2ccccc2n2cc(-c3ccccc3)nc12	-3.0	15
124	COC(=O)c1[nH]n(-c2ccccc2)c(=O)c1N=Nc1cc(C(F)(F)F)cc(C(F)(F)F)c1	-1.0	/
125	N#C/C(=C\c1ccc(Cl)cc1)S(=O)(=O)Cc1ccco1	-1.5	/
126	CS(=O)(=O)c1sc(C(=O)Nc2ccccc2Cl)c2c1C=CCC2	-1.4	/
127	O=C(/C=C/c1ccco1)OC(C(=O)Nc1ccc(F)cc1)c1ccccc1 (stereo not drawn)	/	-7
128	O=C(O)CSC(O)C(=O)c1ccccc1 (stereo not drawn)	/	7
129	O=C(Cc1ccccc1)NCC1OCCc2ccccc21 (stereo not drawn)	/	-8
130	O=S(=O)(NCC1(N2CCCCC2)CCCCC1)c1cccs1	/	-9
131	CCOC(=O)N1CCC(NC(=O)c2ccc(CNS(=O)(=O)c3ccc(F)cc3)cc2)CC1	/	0
132	O=C(O)CCC(=O)NCc1ccccc1	-0.1	1

Individual results from the list:
O=C(/C=C/c1ccco1)Nc1ccc(Oc2ccccc2)cc1 in S aureus helic = 14
Cn1cc(Cl)c(/C=N/O)n1 in MgrA DNA FP = -0.6
O=C(Cc1coc2cc3c(cc12)CCC3)N1CCc2ccccc21 in S aureus helic = -4
CC(C)(C)c1cc2nc(C(F)(F)F)cc(N3CCN(c4ncc(C(F)(F)F)cc4Cl)CC3)n2n1 in S aureus helic = -26
COC(=O)c1[nH]n(-c2ccccc2)c(=O)c1N=Nc1cc(C(F)(F)F)cc(C(F)(F)F)c1 in MgrA DNA FP = -1.0
Fc1ccc(N=Cc2ccncc2)cc1F in S aureus helic = -19
COc1ccc(NC(=O)Oc2ccccc2)cc1 in MgrA DNA FP = -0.8
